# From PubChem
# Arbovirus inh – antivirals against arbovirus infection. 200,000 tested, 0.37% active. arbovirus infection cell-based antiviral screen. inhibition, % at 10 µM;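 active = inhibition from about 30%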;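 also: bluetongue infection of BSR cells; cell survival read as ATP light after 72 h; 0% = infected wells without compound and 100% = uninfected wells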
# RecA splice inh – inhibitors of M. tuberculosis RecA intein splicing; AID 2221; P9WHJ3; inhibition, %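 (about 9 µM by stock and volumes)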; 290,000 tested, 0.75% active; cell-free RecA intein splicing, fluorescence; in the data active = inhibition above about 30%; inconclusive = no clear call, values can overlap the other calls;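 also: 0% = vehicle wells and 100% = reference inhibitor control wells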
# Target sequence (P9WHJ3 whole entry, looked up, canonical isoform): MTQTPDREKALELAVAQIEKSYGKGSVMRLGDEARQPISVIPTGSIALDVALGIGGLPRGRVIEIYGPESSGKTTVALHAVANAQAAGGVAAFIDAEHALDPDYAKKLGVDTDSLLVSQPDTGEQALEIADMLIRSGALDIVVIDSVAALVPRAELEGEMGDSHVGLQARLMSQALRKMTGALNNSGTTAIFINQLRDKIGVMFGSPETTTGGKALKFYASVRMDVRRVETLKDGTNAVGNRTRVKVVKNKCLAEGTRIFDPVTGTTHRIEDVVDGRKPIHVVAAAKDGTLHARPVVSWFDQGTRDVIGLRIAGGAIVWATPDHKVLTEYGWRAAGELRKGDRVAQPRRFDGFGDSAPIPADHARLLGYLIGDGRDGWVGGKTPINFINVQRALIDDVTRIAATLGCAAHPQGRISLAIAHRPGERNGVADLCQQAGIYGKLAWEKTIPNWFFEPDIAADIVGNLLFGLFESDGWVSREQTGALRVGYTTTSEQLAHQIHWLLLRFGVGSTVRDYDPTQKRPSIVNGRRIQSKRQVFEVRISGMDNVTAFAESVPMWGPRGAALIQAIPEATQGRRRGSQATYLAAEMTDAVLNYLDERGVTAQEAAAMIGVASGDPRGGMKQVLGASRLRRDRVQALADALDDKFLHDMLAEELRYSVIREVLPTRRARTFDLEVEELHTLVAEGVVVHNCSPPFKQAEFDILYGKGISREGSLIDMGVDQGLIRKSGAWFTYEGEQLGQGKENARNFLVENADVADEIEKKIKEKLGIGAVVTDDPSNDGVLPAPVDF
# YopH PTP inh – blocks Yersinia enterocolitica YopH tyrosine phosphatase. 140,000 tested, 0.16% active. inhibition, %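 (about 10 µM by stock and volumes)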. fluorescence Ex485/Em525;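 active = inhibition of 50% or more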;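 also: controls were vehicle for no effect and minimum signal wells for full effect; inactives centre near -20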
# Mtb H37Rv – M. tuberculosis H37Rv growth inhibitors, H37Rv strain (AID 1626); inhibition, % at 10 µM; hits with a dose series show IC50 in µM; 220,000 tested, 0.95% active; M. tuberculosis H37Rv growth inhibition; higher % means a stronger effect;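 active = confirmed in a dose series; inconclusive = inhibition above 80% but not taken into the dose series; inactive = below 80% or under 30% at every dose of the series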;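 also: bacteria incubated seven days before Alamar blue readout; 0% = bacteria only wells and 100% = bacteria with antibiotic wells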
# Mtb betalactam – beta-lactam sensitization of Mtb H37Rv; M. tuberculosis H37Rv growth with meropenem, percent inhibition; hits of this screen are not shown here; inhibition, % at 25 µM; 330,000 tested, 0.27% active; AID 434955;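 active = about 74% or more and at least 40 points above the plate without the antibiotic, then above 30% in a dose series; inconclusive = first-round hits that could not be retested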;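 also: growth measured after seven days incubation then overnight dye step; 0% = bacteria only wells and 100% = bacteria with antibiotic; twin plates without the antibiotic show which effects depend on it; some results filed as inactive read as strong as hits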
# Arbovirus inh repeat – also measured in Arbovirus inh; calls as there; inhibition, %; measured here: 10K subset replicate screen; many hits read low in the repeat;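 first of two repeat runs on a subset; 0% = infected and 100% = uninfected wells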
# Starred values were filed as active, the others as inactive; ? = inconclusive; nt = no result given; & = joins results of further samples. This is a subset; rates above refer to the full screens.
SMILES,Arbovirus inh,RecA splice inh,YopH PTP inh,Mtb H37Rv,Mtb betalactam,others
CC(=O)N=c1n(C)c2ccccc2n1CCOc1ccccc1,4,4.1,-26,-3%,-5,
COc1ccccc1N1CCN(C2CCCC(C)C2)CC1 (centres undefined),2,-1.8,-77,4%,4,
CC(C)CN1C(=O)C(=O)N(CC(=O)N2CCC(Cc3ccccc3)CC2)C1=O,17,-2.5,nt,-1%,-12,
Cc1cc(N)ccc1-n1c(C)ccc1C,-4,1.5,-12,-3%,3,
CN1CC(C(=O)c2ccc(Cl)cc2)C(c2ccc(Cl)cc2Cl)C1 (centres undefined),nt,6.2,nt,nt,4,
O=c1cnnc(Nc2cccc(F)c2)[nH]1,4,-1.3,nt,4%,-9,
Cc1[nH]c2ccccc2c1C(=O)CN1C(=O)C(=O)N(C2CCCC2)C1=O,7,0.8,nt,1%,-6,
Cc1cc2nc(-c3ccc(SCc4ccc(C#N)cc4)nc3)[nH]c2cc1C,-18,-1.0,-19,5%,4,
Cc1ccc2cc(CN(CC3CCCO3)C(=S)NCc3ccco3)c(=O)[nH]c2c1C (centres undefined),5,1.4,-27,11%,-3,
COCCN(C(=O)COC(=O)C1CC1C)c1c(N)n(Cc2ccccc2)c(=O)[nH]c1=O (centres undefined),nt,0.8,nt,nt,-8,
NC(=O)c1ccsc1NC(=O)COC(=O)c1ccc(Cl)c(N)c1,nt,-0.4,nt,nt,-1,
CCOc1ncccc1C(=O)NCCN1C(=O)S/C(=C/c2cccs2)C1=O,1,1.0,-10,-1%,2,
O=C(NCc1ccccc1Cl)c1cc2ccccc2oc1=O,nt,-2.2,nt,nt,1,
CC(C)(C)C(O)C(Oc1ccc(Cl)cc1)n1cncn1 (centres undefined),-4,-1.2,20,7%,-3,
Cc1cccc(N2CCN(C(=O)C3CCC(=O)N(Cc4ccccc4F)C3)CC2)c1C (centres undefined),nt,-1.1,nt,nt,5,
CC(=O)N1CCc2cc(S(=O)(=O)C(C)CC(=O)Nc3ccc(OC(F)(F)F)cc3)ccc21 (centres undefined),nt,-2.2,nt,nt,5,
CC1=C(C(=O)NCc2ccccc2)C(c2cc(Br)cc(Br)c2OC(C)C)NC(=O)N1 (centres undefined),-11,0.0,16,0%,2,
Cc1cc(C)cc(NC(=O)CSCc2cnn(-c3ccccc3)c2-n2cccc2)c1,0,8.9,3,4%,-5,
COc1ccc(C2=NN(C(=O)C(O)c3ccccc3)C(O)(C(F)(F)F)C2)cc1 (centres undefined),nt,2.2,nt,nt,3,
CCN1CCN(c2nc(-c3ccc(F)cc3)cc(=O)[nH]2)CC1,nt,-1.6,nt,nt,-2,
Cc1coc2c(C)c3oc(=O)c4c(c3cc12)CCCC4,5,0.0,nt,9%,6,Arbovirus inh repeat=-2
O=c1c2ccccc2nnn1CSc1nnc(-c2ccco2)o1,0,-1.1,-30,0%,-6,Arbovirus inh repeat=0
O=[N+]([O-])c1ccc(-c2csc(N3CCc4ccccc4C3)n2)cc1,-2,-9.4,4,0%,-4,
C/C(=N\NC(=O)COc1ccccc1-c1ccccc1)c1cccnc1,-14,1.5,nt,7%,-4,
O=C(Cc1ccccc1)N/N=C/c1ccc([N+](=O)[O-])s1,-27,-1.3,-3,?,100,

# In the list so far, these contain an aryl thioether with sulfur outside any ring:
SMILES,Arbovirus inh,RecA splice inh,YopH PTP inh,Mtb H37Rv,Mtb betalactam,others
Cc1cc2nc(-c3ccc(SCc4ccc(C#N)cc4)nc3)[nH]c2cc1C,-18,-1.0,-19,5%,4,
O=c1c2ccccc2nnn1CSc1nnc(-c2ccco2)o1,0,-1.1,-30,0%,-6,Arbovirus inh repeat=0

# Next part:
SMILES,Arbovirus inh,RecA splice inh,YopH PTP inh,Mtb H37Rv,Mtb betalactam,others
O=C(Cc1cc(=O)[nH][nH]1)N/N=C/C(Cl)=C/c1ccccc1,4&13,81*,-29&-20,-9%&-9%,2&-2,
O=C(NCCS(=O)(=O)N1CCN(c2ccccc2F)CC1)c1ccc(F)c(F)c1,nt,-1.6,nt,nt,-7,
COCC(=O)NC1CCN(CC(=O)Nc2ccccc2[N+](=O)[O-])CC1,3,-5.7,nt,-3%,11,
CS(=O)(=O)c1ccc(Sc2nc3ccccc3[nH]2)c([N+](=O)[O-])c1,-6,0.9,2,-4%,1,
Cc1ccccc1OCCC(=O)Nc1ccc(S(=O)(=O)N(C)C2CCN(C)CC2)cc1,nt,2.5,nt,nt,-14,
COc1ccc(N2CCN(C(=O)CCc3ccc(S(=O)(=O)NC(C)(C)C)cc3)CC2)cc1,nt,-1.6,nt,1%,-4,
CC(=O)Nc1sc(C)c(C)c1C(=O)OC1CCOC1=O (centres undefined),9,2.2,-16,-4%,-12,
COC(=O)c1c(C)[nH]c(C(=O)NCCc2ccc(S(N)(=O)=O)cc2)c1C,nt,-2.2,nt,nt,8,
CCC(=O)N(Cc1cc2cc(OC)ccc2[nH]c1=O)c1ccc(C)cc1,nt,-1.7,nt,nt,2,
COc1cccc(-c2nc(CS(=O)(=O)CC(=O)NCCCc3ccccc3)c(C)o2)c1,nt,-0.5,nt,nt,-1,
COc1ccc(C(=O)C2CCCN(C(=O)c3ccc(CSC)o3)C2)cc1F (centres undefined),nt,3.2,nt,nt,8,
O=C(N/N=C/c1cnc2ccccc2n1)c1cccc(F)c1,-19,-3.4,-20,-4%,5,
O=C(COc1ncnc2sccc12)N1CCN(S(=O)(=O)c2ccc(Cl)cc2)CC1,23,4.0,-52,-2%,-15,
O=C(Nc1cccc2ccccc12)c1ccc([N+](=O)[O-])s1,-19,-4.2,-20,51µM*,?,
COCc1ccc2oc(C(=O)O)cc2c1,-1,3.0,0,4%,18,
O=C(C1=C(O)C(=O)N(CCN2CCOCC2)C1c1ccncc1)c1ccco1 (centres undefined),2,-1.3,-28,3%,-17,Arbovirus inh repeat=2
Cc1ccn2c(C(=O)N/N=C\c3ccc4c(c3)OCO4)c(C)nc2c1,-11,-3.8,-11,-1%,0,
COC(=O)c1ccc(OC(=O)c2ccccn2)cc1,3,7.6,-26,-7%,10,
CCCCn1c(-c2ccc(OC(F)F)cc2)nc2c1c(=O)[nH]c(=O)n2CC(C)C,nt,1.6,nt,nt,6,
CC(=O)Oc1cccc(N2C(=O)c3cccc4c([N+](=O)[O-])ccc(c34)C2=O)c1,nt,-113,nt,nt,100,
CC(C)(C)c1ccc(OCCC(=O)Nc2cccc(S(=O)(=O)N3CCOCC3)c2)cc1,nt,2.9,nt,nt,-10,
COCCN(C(=O)Cc1cccs1)C(C(=O)NCc1ccc(OC)cc1)c1ccc(C)cc1 (centres undefined),-1,3.9,-36,6%,12,
C/C(=N\NC(=O)c1ccc(OC2OCCOC2Oc2ccc(C(=O)N/N=C(\C)c3ccncc3)cc2)cc1)c1ccncc1 (centres undefined),nt,1.0,nt,-16%,-1,
Cc1nnsc1Sc1ccccc1C(=O)O,7,0.2,nt,9%,-3,
Cc1ccc(NS(=O)(=O)c2cccc3nsnc23)cc1[N+](=O)[O-],nt,2.7,nt,nt,11,
SMILES,Arbovirus inh,RecA splice inh,YopH PTP inh,Mtb H37Rv,Mtb betalactam,others
O=C(NCc1cccs1)c1cc(S(=O)(=O)N2CCCCC2)ccc1Cl,-5,-1.0,8,10%,-6,
CN=C(C)C1=C(O)C(C(=O)OC)C(C)(C)CC1=O (centres undefined),11,-0.9,-22,3%,0,
COc1ccccc1CCNC1CCCCCC1,nt,-1.4,nt,nt,-4,
CCCC(=NCC(=O)O)C1=C(O)C(C(=O)OC)C(C)(C)CC1=O (centres undefined),-2,0.5,-32,-7%,3,
Cc1ccc(C(=O)Nc2cccnc2Oc2ccc(Cl)cc2)cc1,nt,8.3,nt,2%,3,
O=C(NCc1ccccc1)C1CCN(S(=O)(=O)c2ccc(N3CCCC3=O)cc2)CC1,nt,2.2,nt,nt,-2,
COc1ccc(C(=O)OCC(=O)NC2CCCC2)c(OC)c1OC,nt,-0.3,nt,nt,7,
CCOC(=O)N1CCN(C(=O)CN2C(=O)COc3ccc(C)cc32)CC1,-3,-3.5,8,-7%,5,
COc1ccc(C(=O)NCc2ccc3c(c2)CCO3)cc1,nt,-3.9,nt,12%,-7,
Cc1ccc(C)c(NC(=S)N2CCCCC2CO)c1 (centres undefined),18,0.7,nt,0%,2,
COc1ccc(C(=O)Nc2nnc(CCc3ccccc3)s2)c(OC)c1,nt,1.3,nt,nt,92,
N#Cc1cccc(Cn2nnc(-c3ccccc3)n2)c1,-1,1.4,2,6%,4,
COc1ccc(C(C)(C)C)cc1NC(=O)CCCn1c(=O)oc2ccccc21,0,3.9,-35,3%,5,
Cc1onc(-c2c(Cl)cccc2Cl)c1C(=O)Nn1cnnc1,-1,-3.2,-3,-17%,-9,
CO/N=C/C(C#N)=C/c1cc(C(=O)c2ccc(F)cc2)cn1C,4,-14,nt,5%,-3,
Cc1cc(=O)c(C(=O)O)cn1Nc1ccc(F)cc1,10,-5.3,-25,-5%,58,
COc1ccc(CN2CCN(C(=O)c3ccco3)CC2)cc1,4,0.8,-31,5%,-10,
Cc1ccc(SCC(=O)c2c(C)nc3ccccn23)cc1,13,-4.5,nt,4%,10,
COc1cccc(-c2cccc(NC(=O)C3CCN(CC4CCOC4)CC3)c2)c1 (centres undefined),nt,-1.3,nt,nt,0,
CC/C(=N\n1nnnc1Nc1ccccc1)c1ccccc1,-8,5.9,-23,0%,1,
Cn1nnc(-c2ccc(OCc3ccccc3F)cc2)n1,-4,0.2,5,0%,-1,
Nc1c2nc(-c3ccccc3)[nH]c(=O)c2nc(=O)n1-c1ccccc1,nt,-3.8,nt,-6%,9,
COc1ccccc1C(=O)NNC(=S)Nc1ccccc1,3,-0.1,nt,-1%,nt,
O=C(Cc1c(F)cccc1Cl)Nc1ccc(S(=O)(=O)N2CCOCC2)cc1,nt,-1.0,nt,nt,-3,
Cc1cc(NC(=O)NC2(C(F)(F)F)Oc3ccc(Cl)cc3O2)no1 (centres undefined),2,-1.8,-10,3%,92,Arbovirus inh repeat=-2

# Reprinted at random: 3 entries already listed.
SMILES,Arbovirus inh,RecA splice inh,YopH PTP inh,Mtb H37Rv,Mtb betalactam,others
Cc1ccc(C)c(NC(=S)N2CCCCC2CO)c1 (centres undefined),18,0.7,nt,0%,2,
CO/N=C/C(C#N)=C/c1cc(C(=O)c2ccc(F)cc2)cn1C,4,-14,nt,5%,-3,
O=C(Cc1c(F)cccc1Cl)Nc1ccc(S(=O)(=O)N2CCOCC2)cc1,nt,-1.0,nt,nt,-3,

# The list continues:
SMILES,Arbovirus inh,RecA splice inh,YopH PTP inh,Mtb H37Rv,Mtb betalactam,others
CC(CCc1ccccc1)NC(=O)CN1CCN(c2ccc(O)cc2)CC1 (centres undefined),-6,-2.9,nt,5%,3,
CCOC(=O)N1CCN(C(=O)c2ccc([N+](=O)[O-])cc2Cl)CC1,nt,-6.1,nt,nt,1,
N/C(=N\OC(=O)c1cccc2ccccc12)c1cccnc1,-3,1.7,nt,1%,16,
NC(Cc1c[nH]c2ccccc12)C(=O)NCc1ccco1 (centres undefined),2,-0.4,nt,-5%,-3,
O=C(Nc1cnc2ccccn2c1=O)c1ccc(Cl)cc1,1,2.6,-6,-5%,-11,
COc1ccccc1/C=C/C(=O)OCC(=O)NCc1ccco1,-3,-1.5,-25,-3%,-4,
CC(C)n1nc(C(=O)OCC(=O)N(C)C2CCS(=O)(=O)C2)c2ccccc2c1=O (centres undefined),3,-1.4,-25,-21%,-7,
O=P(O)(Oc1ccccc1)OC(c1ccccc1)C(F)(F)F (centres undefined),6,-2.2,nt,5%,1,
CCc1n[nH]c(CCN)n1,nt,-1.4,nt,-9%,-10,
CC1C=CCC2C(=O)N(c3cc(Cl)ccc3O)C(=O)C12 (centres undefined),-15,-5.0,nt,3%,-8,
COC(CN(C)S(=O)(=O)c1cc2c3c(c1)CCC(=O)N3CCC2)OC,nt,1.0,nt,nt,0,

# Compounds above with a cyano group:
SMILES,Arbovirus inh,RecA splice inh,YopH PTP inh,Mtb H37Rv,Mtb betalactam,others
Cc1cc2nc(-c3ccc(SCc4ccc(C#N)cc4)nc3)[nH]c2cc1C,-18,-1.0,-19,5%,4,
N#Cc1cccc(Cn2nnc(-c3ccccc3)n2)c1,-1,1.4,2,6%,4,
CO/N=C/C(C#N)=C/c1cc(C(=O)c2ccc(F)cc2)cn1C,4,-14,nt,5%,-3,

# For reference, part of the list above.
SMILES,Arbovirus inh,RecA splice inh,YopH PTP inh,Mtb H37Rv,Mtb betalactam,others
CC(CCc1ccccc1)NC(=O)CN1CCN(c2ccc(O)cc2)CC1 (centres undefined),-6,-2.9,nt,5%,3,
CCOC(=O)N1CCN(C(=O)c2ccc([N+](=O)[O-])cc2Cl)CC1,nt,-6.1,nt,nt,1,
